SmPrx2 inh – Schistosoma Mansoni Peroxiredoxins (Prx2); hit rate 0.07% among 65,000; Potency, µM; AID 448, 2006; S. mansoni Prx2 activity coupled to TGR/GSH (TGR is thioredoxin glutathione reductase), NADPH fluorescence loss, qHTS; some inactives read as strong as hits; Schistosoma mansoni peroxiredoxin 2 (Prx2); active means full or partial inhibition curve with a strong effect at the top dose; inconclusive means weaker partial or single-point curve; inactive means no accepted curve; note: series up to 57 µM; many of its hits are not listed in these tables
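Activity is read as the drop in NADPH fluorescence (365/450 nm), recorded every 30 sec for 8 min after H2O2 addition. Prx2 is coupled to TGR-driven NADPH oxidation through glutathione, in phosphate buffer pH 7.4.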
LT uptake inh – qHTS Assay for Anthrax Lethal Toxin Internalization; hit rate 0.67% among 70,000; Cells, anthrax lethal toxin internalization, FRET ratio (460/530); AID 912, 2007; Potency, µM (top dose mostly 40 µM), without a hit: top-dose activity change, negative = inhibition, usual class: inhibitors; active = well fitted falling ratio curve with the 530 nm signal flat; inconclusive = other ratio curves, or a change in one channel alone; inactive = flat curves in the ratio and both channels; the % refers to the ratio; note: % is set by controls: 0 for no effect and ±100 for the full control effect; nearly all actives have a fitted effect of over 50% in size; tested in ME-180 cells; beta-lactamase reporter
Active calls of the source: *; ? = inconclusive; · = no result given; [ ] = dose if it differs, or a comment. Potency is the fitted concentration of half-maximal effect. Some of the compounds tested; count on the stated rates, not on these rows.

SMILES | SmPrx2 inh | LT uptake inh
C=C(CC1(C(C)NP(=O)(c2ccccc2)c2ccccc2)CC1)c1ccccc1 (centres undefined) | >57 | -15%
Cn1ccnc1C[C@@](C)(O)c1ccccc1 | >57 | 0%[8 µM]
C[N+](C)(C)CC(=O)N/N=C\c1c(O)ccc2ccccc12 | >57 | ?
CC(=O)c1cc2c(cc1NC(=O)CN1CCCCC1C)OCO2 (centres undefined) | >57 | 6%
CC1CCCC(C)N1C(=O)CSc1nnc(-c2c[nH]c3ccccc23)o1 (centres undefined) | >57 | 3%
COc1ccc(-c2noc(COc3ccc(Cl)c(C)c3)n2)cc1 | >57 | -12%
COc1ncc2nc(-c3ccccc3)c(=O)n(CCc3ccccc3)c2n1 | >57 | ?
COc1ccc(OCC(=O)N2CCN(C(=O)COc3ccccc3)CC2)cc1 | >57 | 3%
Cc1cccc(C2Nc3ccccc3C(=O)N2CCc2ccccc2)n1 (centres undefined) | · | -20%
CC(=O)NCCn1c(SCC(=O)NCc2ccco2)nc2ccccc2c1=O | >57 | ·
COc1cccc(CN(C)CC(=O)NC(=O)NCc2ccco2)c1 | >57 | -9%
O=c1nc2scc(-c3ccccc3)n2c2ccccc12 | >57 | 11%
CCc1nc2c3cnn(-c4cc(Cl)ccc4C)c3ncn2n1 | >57 | ·
COc1cc(/C=c2\s/c(=C(/C#N)C(=O)N3CCCC3)n(-c3ccccc3)c2=O)ccc1O | >57 | -3%
CCOC(=O)c1c(C)n(C)c2ccc(OCC(O)Cn3c(C)nc4ccccc43)cc12 (centres undefined) | >57 | ?
CCOC(=O)C1CCN(C(=O)c2cccc(Cl)c2)CC1 | >57 | -4%
COc1cccc(NC(=O)CCN2CCC(C(N)=O)CC2)c1 | · | -4%
O=C(O)Cc1ccc(NC(=O)C2CC=CCC2C(=O)O)cc1 (centres undefined) | >57 | -4%
CN(CC(=O)N1CCc2ccccc21)S(=O)(=O)c1cccc2cccnc12 | >57 | -27%
c1ccc2c(NC3=NCCS3)cccc2c1 | >57 | ?
CCOC(=O)C1CCCN(C(=O)c2cn(C)c3ccc(S(=O)(=O)N(C)C)cc3c2=O)C1 (centres undefined) | >57 | ?
O=C(O)c1ccc(S(=O)(=O)N=Nc2c(O)[nH]c3ccccc23)cc1 | >57 | -6%[8 µM]
CCC(CC)C(=O)NCCc1cc2ccc(OC)cc2[nH]c1=O | >57 | 11%
COc1ccc(N/C=C2/CCCCC2=O)cc1 | >57 | 12%
O=C(COC(=O)CCc1c[nH]c(=O)[nH]1)Nc1ccccc1 | >57 | 2%
O=C(Nc1ccc(S(=O)(=O)N2CCc3ccccc32)cc1)c1ccco1 | >57 | -5%
Fc1ccc(-c2cc(C(F)(F)F)nc(-n3cncn3)n2)cc1 | >57 | -19%
CCCn1c(C(O)c2ccc3c(c2)OCO3)nc2ccccc21 (centres undefined) | >57 | -2%
Cc1ccc(C)c(C(=O)C(C)OC(=O)c2cccn2C)c1 (centres undefined) | >57 | -22%
CN1C(=O)C(=C2CCCCCC2)SC1=S | >57 | -23%

Entries of single compounds, quoted from the list. Screens in order: SmPrx2 inh	LT uptake inh
`COc1ncc2nc(-c3ccccc3)c(=O)n(CCc3ccccc3)c2n1` is listed with >57	?
`c1ccc2c(NC3=NCCS3)cccc2c1` is listed with >57	?
`COc1ccc(OCC(=O)N2CCN(C(=O)COc3ccccc3)CC2)cc1` is listed with >57	3%
`CN1C(=O)C(=C2CCCCCC2)SC1=S` is listed with >57	-23%
`Fc1ccc(-c2cc(C(F)(F)F)nc(-n3cncn3)n2)cc1` is listed with >57	-19%

Continuation.
SMILES | SmPrx2 inh | LT uptake inh
O=C(COC(=O)CCC(=O)Nc1nccs1)NCc1ccco1 | >57 | -9%
COc1ccc(F)c(C2C(C#N)=C(N)Oc3n[nH]c(C(C)(C)C)c32)c1 (centres undefined) | >57 | 5%
Cc1cc(F)ccc1OC1C=CC(c2ccc3c(c2)OCO3)OC1CO (centres undefined) | · | -21%[8 µM]
O=C(OCC(=O)N1CCCCCC1)c1cccs1 | >57 | 13%
FC(F)(F)c1cccc(N2CCN(Cc3ccoc3)CC2)c1 | >57 | -5%
CC(c1ccccc1)n1cncc1C(=O)N1CCCC1=O (centres undefined) | >57 | 0%
COc1ccc(NC(=O)CCCNS(=O)(=O)c2cccs2)cc1 | >57 | 1%
CSc1nc(N2CCOCC2)c2c(c1C#N)CCCCC2 | >57 | -7%
Nc1ncnc2c1ncn2[C@@H]1O[C@@H](CO)[C@H](O)[C@H]1O | >57 | -2%[3.58 µM]
CCn1ncc(Br)c1C(=O)N(C)C12CC3CC(CC(C3)C1)C2 | >57 | -6%
Cc1ccccc1-c1ccc2ncnc(NCc3cccs3)c2c1 | >57 | ?
O=C(CS(=O)(=O)Cc1ccccc1)NCC1CCCO1 (centres undefined) | >57 | ·
CC(C)(C)NC(=O)Cn1nnc(-c2ccc(Cl)cc2)n1 | >57 | -12%
O=C(CSc1nnc(-c2cccnc2)n1-c1ccccc1)Nc1ccc2c(c1)OCO2 | >57 | ?
CC(C)COC(=O)c1ccc(NC(=O)C2C3CCC(C3)C2C(=O)O)cc1 (centres undefined) | · | -1%
CC1(C)CC(=O)C2=C(C1)NCN(CCCN1CCOCC1)C2 | >57 | ·
CCOc1ccccc1C1C(C#N)=C(N)SC(N)=C1C#N | >57 | 10%
O=C(NCCO)c1scc2c1OCCO2 | >57 | -12%
CCOC(=O)c1ccc(N2C(=O)C3CC=CCC3C2=O)cc1 (centres undefined) | · | -8%
Cn1c(CCN2CCCCCC2)nc2cc(NC(=O)Nc3ccccc3)ccc21 | >57 | 0%
COC(=O)c1ccc(C(NC(=O)OCc2ccccc2)/C(F)=C/[C@@H](C)C(=O)NCc2cc(C)on2)cc1 (some centres undefined) | · | 3%
COc1ccc(C(=O)N2c3ccccc3CC2C)cc1OC (centres undefined) | >57 | -1%
O=C(O)c1cnc2ccccc2n1 | >57 | 15%
O=C(O)CCCCCNC(=O)CCn1cnc2ccccc2c1=O | >57 | ·
O=C1CCc2cc(S(=O)(=O)N3CCCC3C(=O)N3CCN(c4ccccc4)CC3)ccc2N1 (centres undefined) | >57 | -4%
COc1cc(C(=O)OCC(=O)Nc2cc(C)on2)ccc1OCc1ccccc1Cl | >57 | 2%
CC1Cc2ccccc2N1C(=O)CSc1nnc(CNc2ccccc2)o1 (centres undefined) | >57 | -5%
CCOC(=O)c1cnc(SC)nc1Nc1cccc(F)c1 | · | ?
CC1CN(C(=O)N(C)C)CCN1C(=O)N(C)C (centres undefined) | · | 5%
O=C(c1ccco1)c1nnn(Cc2ccccc2)c1-c1ccccc1 | · | ?
O=C(Nc1cc(=O)c2ccccc2o1)N1CCCCC1 | >57 | -4%
N#Cc1ccc(CN2CC3(CCN(C(=O)c4ccncc4)CC3)C2)cc1 | >57 | ?
CC(=O)N1CCN(CCN(CC2C(C)C=C(C)CC2C)C(C)=O)CC1 (centres undefined) | >57 | 4%
COc1ccc(NC(=O)CSc2nnc(Cc3cccn3C)n2-c2ccc(C)cc2)cc1OC | >57 | -4%
COc1cccc2c(=O)n(CC(=O)N3CCCc4ccccc43)ccc12 | >57 | 10%
CCC(CC)NC(=O)c1cc(OC)c(OC)c(OC)c1 | · | 0%
CC(=O)NCCNc1nc(-c2ccc(C(=O)N(C)C)cc2)nc2ccccc12 | >57 | 3%
COc1ccc(CCN2CNc3c(c(=O)n(C)c(=O)n3C)C2)cc1 | >57 | ?
CCN(CC)CCNC(=O)Cn1nc(-c2ccc(C)cc2)ccc1=O | >57 | 6%
CC1(c2ccc(Cl)cc2)NC(=O)N(CC(=O)N2CCCC2)C1=O (centres undefined) | >57 | ?
CCOC(=O)CC(=O)CSc1ccc2nnc(-c3cccc(F)c3)n2n1 | >57 | ?
CCOC(=O)c1cccc(NC(=O)Cn2c(CC(=O)N3CCCC3)nc3ccccc32)c1 | >57 | 8%
Cc1ccc(OCC(=O)N2CCN(CC3CC4C=CC3C4)CC2)cc1 (centres undefined) | >57 | -26%
Cn1c(=O)[nH]c(=O)c2c1nc(SCCN1CCCCC1)n2CCCc1ccccc1 | >57 | -25%
CC1CCCCN1C(=O)c1ccc(S(=O)(=O)N2CCCCC2C)cc1 (centres undefined) | · | ?
CC(=O)[C@]1(O)CC[C@@H]2[C@H]3C[C@@H](C)C4=CC(=O)CC[C@@]4(C)[C@H]3[C@@H](O)C[C@]21C | · | -7%[8 µM]
O=C1CC(Cc2ccc(Cl)cc2)C(=O)N1c1ccccn1 (centres undefined) | >57 | ?
Cc1c(N)cccc1N | · | -5%
CCCN(CCC)CCCNC(=O)c1cc2c(=O)n(C)c3ccccc3c2n1C | >57 | 3.2µM*
CC1CN(C(=O)c2ccc(COCC(F)(F)F)o2)CC(C)O1 (centres undefined) | >57 | 1%
OCC1OC(n2nnc3ccccc32)C(O)C(O)C1O (centres undefined) | >57 | -5%
Cc1ccc(C2CC(=O)C(C=NCCN3CCN(C(=O)Cc4ccccc4)CC3)=C(O)C2)cc1 (centres undefined) | >57 | 0%
CC1(C)Cc2c(c(-c3ccco3)[nH]c(=O)c2C#N)CO1 | >57 | -14%
COCCCN1C(=O)c2ccc(C(=O)NCc3ccco3)cc2C1=O | >57 | -9%
Cc1ccc2cc(CCNC(=O)C(C)C)c(=O)[nH]c2c1C | >57 | 8%
CCCCn1c(CN(C)Cc2ccccc2)nc2c1c(=O)n(C)c(=O)n2C | >57 | ?
CC1(O)N(Cc2ccccc2)C(=O)OC12CCCCC2 (centres undefined) | · | -15%
Cc1ccc(N2CCCCn3c2nc2c3c(=O)n(CC(=O)O)c(=O)n2C)cc1 | >57 | -7%
O=C(OCCN1CCCC1)C1(c2ccccc2)CCCC1 | >57 | ?
O=C1C2CC=C(Cl)CC2C(=O)N1CCc1c[nH]c2ccccc12 (centres undefined) | · | -15%

The list goes on.
SMILES | SmPrx2 inh | LT uptake inh
CCOC(=O)c1c(C)c(C(=O)N2CCN(C(=O)c3ccco3)CC2)c(C)n1C | >57 | 9%
COc1ccccc1-n1cnc2cc(NS(=O)(=O)c3ccccc3)ccc21 | >57 | -8%
Cc1cccc2cc(C(c3nnnn3CC3CCCO3)N3CCOCC3)c(=O)[nH]c12 (centres undefined) | >57 | 4%
CCOc1ccc(CCNc2cc(C)nc3ncnn23)cc1OCC | >57 | -3%
CCCSc1nnc(Cc2cc(=O)[nH]c(=O)[nH]2)n1-c1cc(C)ccc1C | >57 | ·
CCOC(=O)CSc1nncc2ccc(OC)c(OC)c12 | >57 | -17%
CCCCn1c(SCC(=O)N2CCC(C)CC2)nc2cc(S(N)(=O)=O)ccc21 | >57 | 18%
COC(=O)[C@@]1(Cc2ccccc2)[C@H]2c3cc(C(=O)N4CCCC4)[nH]c3C[C@H]2CN1C(=O)c1ccccc1 | >57 | ?
O=c1oc2ccccc2c(O)c1/C=N/c1nc(-c2ccc(O)c(O)c2)cs1 | · | -27%[8 µM]
O=Cc1ccc(OC2C=CC(C#Cc3ccccc3)OC2CO)cc1 (centres undefined) | · | -13%[8 µM]
COc1ccc(Nc2cccccc2=O)cc1 | · | -11%
CCOC(=O)CSc1nc2ccccc2c(=O)n1CCCCCC(=O)NCc1ccco1 | >57 | ?
O=c1cc(CN2CCN(C/C=C/c3ccccc3)CC2)c2cc(O)ccc2o1 | >57 | -11%
CCn1nccc1C(=O)Nc1nccs1 | >57 | 4%
C[C@H]1CCCC=CC2C[C@H](OC(=O)CN(C)C)C[C@@H]2[C@@H](O)/C=C\C(=O)O1 (some centres undefined) | >57 | ?

Entries from the list above that contain two or more sulfur atoms:
SMILES | SmPrx2 inh | LT uptake inh
CN1C(=O)C(=C2CCCCCC2)SC1=S | >57 | -23%
COc1ccc(NC(=O)CCCNS(=O)(=O)c2cccs2)cc1 | >57 | 1%
CCCCn1c(SCC(=O)N2CCC(C)CC2)nc2cc(S(N)(=O)=O)ccc21 | >57 | 18%

Further structures follow.
SMILES | SmPrx2 inh | LT uptake inh
COc1ccc(Cn2c(SCC(=O)NCc3ccco3)nc3ccsc3c2=O)cc1 | >57 | 7%
CC(C)C[C@@H](CC(=O)N[C@H](CC(=O)N[C@@H]1CCNC[C@H]1C(=O)N[C@H](CC(=O)N[C@@H](CCC(=O)O)CC(=O)O)Cc1ccccc1)C(C)C)NC(=O)[C@@H]1CCCC[C@H]1N | >57 | 1%
CCC(Oc1ccccc1)C(=O)N1CC(C)CC(C)C1 (centres undefined) | · | 3%
Cc1cccc(N(CC(=O)N2CCCC2)S(=O)(=O)c2ccccc2)c1 | >57 | 18%
O=C(O)[C@@H]1[C@@H](C(=O)O)[C@]23C[C@@]2(C(=O)O)[C@]2(C(=O)O)CCC3=C3CCCC312 | >57 | ?
CC(C)[C@@H](CC(=O)N[C@@H]1CCNC[C@H]1C(=O)N[C@H](CC(=O)N[C@@H](CCC(=O)O)CC(=O)O)Cc1ccccc1)NC(=O)C[C@H](Cc1ccccc1)NC(=O)[C@@H]1CNCC[C@H]1N | >57 | -11%
CCCCNC(=O)C(c1ccc(OCC(=O)OC)c(C(=O)OC)c1)N(Cc1ccccn1)C(=O)CCCCCN1C(=O)NC(c2ccc(-c3ccccc3)cc2)C(C(=O)OCc2ccccc2)=C1C (centres undefined) | · | ?
C=CCn1c(NCc2cc(C)ccc2O)nc2ccccc21 | >57 | -9%

Screening results: PubChem, National Center for Advancing Translational Sciences (NCATS)
